Sfp PPTase inh – qHTS Assay for Inhibitors of Bacillus subtilis Sfp phosphopantetheinyl transferase (PPTase); Biochemical Sfp PPTase activity, qHTS; Potency, µM, for the others: max response, negative = inhibition, actives largely listed as inhibitors; 310,000 tested, 3.5% active; AID 1490, 2009; active = well fitted inhibition curve with a large enough effect; inconclusive = small, poorly fitted or top-dose-only effect, or another doubt; inactive = no such curve, though single readings can be large or run the other way;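 note: the enzyme is Sfp with the accession as filed and its product quenches rhodamine fluorescence; potency is the fitted concentration of half-maximal effect; 0% = enzyme reaction without inhibitor and -100% = no enzyme wells; top concentration of the series not given in the record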
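Fluorescence-quenching assay: 15 nM Sfp-PPTase preincubated 15 min at room temperature with compound, then 5 uM rhodamine-CoA and 12.5 uM BHQ-2-labelled YbbR peptide added. Fluorescence (ex 525/em 598 nm) read at start and after 30 min; difference gives rate.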
ClpP mod – qHTS Assay for Activators of ClpP | ATP-dependent Clp protease proteolytic subunit (Bacillus subtilis (strain 168)), P80244 | purified B. subtilis ClpP, FRET peptide cleavage, 20 min | Potency, µM (titrated, usually from 57.5 µM), inactives show at the top dose activity change, negative = active | 340,000 tested, 1.9% active | AID 651965, 2013; active = well fitted falling curve with a large enough effect; inconclusive = small, poorly fitted or top-dose-only effect; inactive = no such curve, though single readings can be large or run the other way; note: potency is the fitted concentration of half-maximal effect; the source files actives as falling curves though it sought activators and does not explain the sign; nearly all actives have a fitted effect of over 65% in size; many hits overshoot -100%
Target sequence (P80244 whole entry, looked up): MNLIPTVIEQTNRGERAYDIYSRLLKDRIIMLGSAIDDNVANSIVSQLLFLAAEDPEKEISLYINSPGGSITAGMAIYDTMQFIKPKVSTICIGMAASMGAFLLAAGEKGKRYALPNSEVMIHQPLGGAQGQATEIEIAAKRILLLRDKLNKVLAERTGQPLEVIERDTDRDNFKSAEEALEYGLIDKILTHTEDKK
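FRET quenching reversal measured ClpP activation: 10 microg/mL B. subtilis ClpP at pH 8 with the FRET-FV decapeptide, read at 430 nm after 320 nm excitation. The 20-min minus 0-min signal was scaled between DMSO/no-enzyme wells and ADEP (5.8 microM final).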
TRPV1 PAM – HTS Assay for Compounds that Act as Potentiators of the Vanilloid Receptor 1. TRPV1-expressing cells, Fluo-8 calcium influx, capsaicin EC20 potentiation; host cell line not named in the record; control for the full effect not named in the record. potentiation, % at 8.33 µM. 320,000 tested, 0.02% active; active means potentiation above 80%; inconclusive means 30% to 80%; inactive means below 30%; note: 0% is about no effect
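Cells expressing TRPV1 were dye-loaded with Fluo-8 and read kinetically: 10 s baseline, 3 min after compound (agonist portion), then 2 min after EC20 capsaicin (allosteric enhancer portion). Calcium-bound dye fluorescence at 480/520 nm.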
gsp antag – qHTS for Antagonists of gsp, the Etiologic Mutation Responsible for Fibrous Dysplasia/McCune-Albright Syndrome: qHTS. gsp-mutant cells, cAMP HTRF, 30 min; control for the full effect not named in the record. Potency, µM (top dose mostly 76.9 µM), without a hit: at the top dose activity change, negative = inhibition, usual class: inhibitors. 340,000 tested, 0.4% active. AID 624288, 2012; active = falling curve of any shape with a large fitted effect; inconclusive = falling curve, mostly with a smaller effect; inactive = flat or rising curve; cell line not stated here;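 note: intracellular cAMP measured with PDE inhibitor Ro 20-1724 present during compound exposure; potency is the fitted concentration of half-maximal effect; % is set by controls: 0 for no effect and ±100 for the full control effect; nearly all actives have a fitted effect of over 65% in size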
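Cells in G418 medium, seeded 16-24 h, 37C; buffer exchange to DPBS + 1 mM CaCl2, 0.5 mM MgCl2, 0.05% BSA; cpds in DMSO + […] (300 uM stock), 30 min 37C; HTRF cAMP detection.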
gsp agonist – qHTS for Agonist of gsp, the Etiologic Mutation Responsible for Fibrous Dysplasia/McCune-Albright Syndrome: qHTS | gsp mutant cells, cAMP HTRF, 30 min; control for the full effect not named in the record | Potency, µM (series often up to 76.9 µM), for the others: at the highest dose activation (cAMP increase), hits mostly activators | 340,000 tested, 0.13% active; active = well fitted activation curve with a large enough effect; inconclusive = small, poorly fitted or top-dose-only effect, or another doubt; inactive = no such curve, though single readings can be large or run the other way; cell line not stated here;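 note: phosphodiesterase inhibitor Ro 20-1724 added with compounds to block cAMP breakdown; potency is the fitted concentration of half-maximal effect; nearly all actives have a fitted effect of over 60% in size; about a fifth of the inactives were tested at one dose only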
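Cells stably selected in G418 were plated at 2000/well, grown 16-24 hr, then given compounds in DMSO with the PDE inhibitor […] (300 uM solution added) for 30 min at 37C; cAMP was read by HTRF.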
Menin MLL FP FL – qHTS Assay for Inhibitors Targeting the Menin-MLL Interaction in MLL Related Leukemias: Competition With Fluorescein Labeled MLL-derived Peptide; Fluorescence polarization, fluorescein-MLL peptide displacement from menin; FP activity change, % at 61.4 µM; 290,000 tested, under 10 active; inconclusive = falling polarisation curve, or a change in total fluorescence; inactive = total fluorescence flat and polarisation flat or rising; no compound was filed as active; the % refers to the polarisation; negative = inhibition;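 note: % of control where 0% means no effect; inhibitors lower the polarisation; unlabelled MLL peptide was the positive control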
TRPML1 inh – qHTS for Inhibitors of the Human Mucolipin Transient Receptor Potential 1 (TRPML1); Mucolipin-1 (Homo sapiens), Q9GZU1; TRPML1-inducible cells, Ca2+ dye fluorescence, FDSS; stronger effect = lower value; inhibition of EC80 agonist-evoked calcium signal; activity change, negative = inhibition, % (test concentration not listed); 390,000 tested, 0.02% active; AID 624415, 2012; in the data active means activity change below about -50%; inconclusive means about -30% to -50%; inactive means above about -30%;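 note: stimulus is agonist 54-4 at its EC80 concentration; % is set by controls: 0 for no effect and ±100 for the full control effect; compound concentration not given in the record; the text of the record puts the active cut at -80%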
Target sequence (Q9GZU1 whole entry, looked up): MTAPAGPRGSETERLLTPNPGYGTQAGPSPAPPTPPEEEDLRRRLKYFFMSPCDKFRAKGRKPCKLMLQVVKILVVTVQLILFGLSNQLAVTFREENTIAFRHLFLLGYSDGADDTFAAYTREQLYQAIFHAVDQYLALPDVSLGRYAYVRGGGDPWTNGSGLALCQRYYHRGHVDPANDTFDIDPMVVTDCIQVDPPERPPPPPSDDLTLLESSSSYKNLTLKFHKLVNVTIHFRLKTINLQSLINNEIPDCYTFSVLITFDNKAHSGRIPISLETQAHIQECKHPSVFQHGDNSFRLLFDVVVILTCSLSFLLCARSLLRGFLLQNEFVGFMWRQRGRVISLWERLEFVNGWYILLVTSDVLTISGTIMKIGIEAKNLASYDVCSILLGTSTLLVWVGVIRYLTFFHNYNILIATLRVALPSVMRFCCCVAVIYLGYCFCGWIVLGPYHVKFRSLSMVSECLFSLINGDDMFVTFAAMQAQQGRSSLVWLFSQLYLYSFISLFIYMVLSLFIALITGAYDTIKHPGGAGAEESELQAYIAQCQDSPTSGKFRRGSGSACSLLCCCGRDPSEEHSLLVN
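TRPML1-DL cells, Tet-induced overnight (~16 h, 37 °C) at 1,500 cells/well, were loaded with Ca8 no-wash dye plus quencher for 45-90 min at room temperature. Compounds were pinned during FDSS kinetic reading; agonist 54-4 at EC80 (4 uM final) then added.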
The depositor's hits bear a star; ? = inconclusive; . = not tested or not shown; [ ] = another dose, or the depositor's remark.

Values run as follows: Sfp PPTase inh	ClpP mod	TRPV1 PAM	gsp antag	gsp agonist	Menin MLL FP FL	TRPML1 inh
1: COc1cccc(OC)c1C(=O)NNC(=O)c1ccccc1-n1cccc1
  18%	.	-6	3%	-11%	2.1	12
2: COc1cc(NS(=O)(=O)c2ccc(NC(=S)NC(=O)COc3ccccc3OC)cc2)nc(OC)n1
  -23%	2.7%	7	?	-7%	-1.3	-3
3: COc1ccc(Cl)cc1N/C(N)=N/c1nc(C)cc(C)n1
  14%	.	1	6%	-5%	-1.5	-7
4: O=C(Nc1ccccc1N1CCOCC1)c1cc(Cl)c2c(c1)OCO2
  .	-2.5%	-6	-3%	8%	.	21
5: Cc1ccc(C(=O)Nc2c(C)n(C)n(-c3ccccc3)c2=O)cc1S(=O)(=O)N1CCOCC1
  -3%	-0.5%	-18	8%	11%	5.5	15
6: Cc1cc([N+](=O)[O-])nn1Cc1noc(C(=O)NCCc2ccccn2)n1
  20%	.	5	21%	-8%[15.4 µM]	0.9	-14
7: COc1cc(O)c(C=NN2C(=O)CSC2=S)c(OC)c1
  .	-8.4%	.	.	-1%	.	-1
8: O=C(CCN1C(=O)c2ccccc2C1=O)NCc1ccncc1
  -1%	-0.3%	3	7%	-52%[inhibitor]	0.5	24
9: CN1CCN(CCC(=O)Nc2ccc3c(c2)OCO3)CC1
  -10%	0.0%	22	-6%	10%	0.2	38
10: COc1cc2c(cc1OC)C(c1ccccc1)CC2=O (centres undefined)
  -5%	3.7%	-4	-8%	33%	0.8	-19
11: COCCn1nnnc1CN1CCC(O)(c2cccc(C(F)(F)F)c2)CC1
  12%	-6.7%	-3	2%	8%	1.3	-10
12: O=C(Nc1ccc2nc[nH]c2c1)c1ccco1
  11%	-0.6%	-15	9%	-2%	0.8	-9
13: NNC(=O)CSCc1nc(-c2ccccc2)cs1
  15%	-0.6%	-2	-11%	9%[15.4 µM]	2.5	7
14: Cc1ccc(N(CC(=O)NCc2ccccn2)S(=O)(=O)c2ccccc2)cc1Cl
  6%	-1.6%	-8	-10%	?	.	-3
15: c1ccc(Sc2cnc3ccccc3n2)cc1
  -7%	-3.4%	13	14%	?	2.7	9
16: COCCN(C(=O)CSc1nnc(-c2cccs2)n1N)c1c(N)n(Cc2ccccc2)c(=O)[nH]c1=O
  24%	-4.0%	1	12%	1%	.	9
17: Cc1cc(Br)ccc1NC(=O)CN1CCN(c2ccccn2)CC1
  18%	-2.3%	10	-6%	-17%	-1.3	26
18: C/C(=N/NC(=O)CNC(=O)/C=C/c1ccco1)c1ccc(Cl)cc1
  ?	28µM*	-1	2%	-12%[15.4 µM]	21	-7
19: CCn1c(NCCCO)nc2c(c1=O)C(C)(CC)Cc1ccccc1-2 (centres undefined)
  -7%	-5.2%	.	-14%	-5%[15.4 µM]	6.2	74
20: Cc1cc(NS(=O)(=O)c2ccc(NC(=O)COc3ccccc3[N+](=O)[O-])cc2)no1
  5%	-1.0%	13	-19%	?	.	-12

Next part:
Values run as follows: Sfp PPTase inh	ClpP mod	TRPV1 PAM	gsp antag	gsp agonist	Menin MLL FP FL	TRPML1 inh
21: CCOc1ccc(NC(=O)CCN2CCN(S(=O)(=O)c3ccc(F)cc3)CC2)cc1
  8%	-0.9%	13	-3%	-14%	4.0	-1
22: Cc1sc(NC(=O)Cn2c(=O)oc3ccccc32)nc1-c1ccc(Cl)cc1
  -21%	-4.8%	10	2%	15%	-0.6	34
23: CCCN1C(=O)c2cc(C(=O)Nc3ccc(OC)c(OC)c3)ccc2C1Nc1ccc(OC)c(OC)c1 (centres undefined)
  -17%	.	-12	-13%	-22%	0.7	-1
24: CC(C)c1ccc(NC(=O)c2ccc3c(c2)CCN3S(C)(=O)=O)cc1
  19%	9.1%	-10	?	23%	0.2	.
25: Cc1ccc(NC(=O)c2oc3ccccc3c2NC(=O)C2CC2)cc1
  8%	35%	9	-30%	31%	.	-6
26: C=C(C)C(=O)N1CC2(CC(c3cccc(NC(=O)COc4ccc(Cl)cc4)c3)=NO2)C[C@@H]1C(N)=O (some centres undefined)
  2%	1.0%	10	-1%	.	-0.4	4
27: O=C(CN1C(=O)NC2(CCCC2)C1=O)Nc1nc(-c2ccc(F)c(F)c2)cs1
  .	-3.9%	11	4%	5%	.	-11
28: COC(=O)c1c(NC(=O)c2ccccc2OC)sc(C(=O)N2CCOCC2)c1C
  15%	.	4	-15%	18%	0.4	2
29: O=C(Cc1cccc(NC(=O)C2CCN(C(=O)C3CC3)CC2)c1)Nc1cccc(C(=O)N2CCOCC2)c1
  .	1.0%	.	8%	.	.	17
30: Cc1cc(NC(=O)CSc2nnc(-c3ccccc3)n2C)no1
  1%	.	-12	-2%	-9%[15.4 µM]	-3.1	-26
31: NC(=O)CC1NC(=O)c2ccccc21 (centres undefined)
  15%	1.2%	1	11%	-32%	3.3	-13
32: COc1ccc(OC)c(S(=O)(=O)N(C)CC(=O)N2CCN(c3ccccc3)CC2)c1
  18%	-1.8%	3	-1%	?	2.6	-6
33: CC/C(=N\N=C1\SC(C)C(=O)N1Cc1ccco1)c1ccccc1 (centres undefined)
  -11%	-2.2%	-9	3%	-7%	5.4	2
34: CSC(=Nc1cccc(C)c1)NC#N
  1%	-1.6%	-7	7%	13%	2.8	-19
35: COc1cc(NC(=O)c2ccccc2)c(OC)cc1NC(=O)CN1C(=O)N(C)C2(CCCCC2)C1=O
  .	0.3%	-13	-18%	-51%[inhibitor]	.	-3
36: CCOC(=O)c1c(C)oc2c(F)c(F)c(F)c(F)c2c1=O
  2%	-3.3%	12	-3%[15.4 µM]	10%	1.6	13
37: CCOc1cc(/C=N/Nc2nn3cnnc3c3ccccc23)ccc1O
  ?	-3.1%	3	-15%	-24%	3.0	-10
38: Cc1ccc(C)c(OCC(=O)N/N=C/c2ccc(N3CCOCC3)cc2)c1
  .	3.9%	.	.	-15%	.	-1
39: COc1ccc(C2(c3ccc(OC)cc3)NC(=O)N(CC(=O)Nc3ccccc3C)C2=O)cc1
  79µM*	-2.5%	12	-7%	-35%[inhibitor]	.	9
40: NC1=NC(=Nc2ccc(S(=O)(=O)N3CCOCC3)cc2)c2ccccc21
  -22%	.	-4	1%	5%[15.4 µM]	2.3	2

The final five entries of the section before open the next one.
Values run as follows: Sfp PPTase inh	ClpP mod	TRPV1 PAM	gsp antag	gsp agonist	Menin MLL FP FL	TRPML1 inh
36: CCOC(=O)c1c(C)oc2c(F)c(F)c(F)c(F)c2c1=O
  2%	-3.3%	12	-3%[15.4 µM]	10%	1.6	13
37: CCOc1cc(/C=N/Nc2nn3cnnc3c3ccccc23)ccc1O
  ?	-3.1%	3	-15%	-24%	3.0	-10
38: Cc1ccc(C)c(OCC(=O)N/N=C/c2ccc(N3CCOCC3)cc2)c1
  .	3.9%	.	.	-15%	.	-1
39: COc1ccc(C2(c3ccc(OC)cc3)NC(=O)N(CC(=O)Nc3ccccc3C)C2=O)cc1
  79µM*	-2.5%	12	-7%	-35%[inhibitor]	.	9
40: NC1=NC(=Nc2ccc(S(=O)(=O)N3CCOCC3)cc2)c2ccccc21
  -22%	.	-4	1%	5%[15.4 µM]	2.3	2
41: COc1ccc(NC(=O)CC2(Cc3ccccc3)CCOC(C)(C)C2)cc1 (centres undefined)
  16%	-1.1%	-7	-1%	-2%	0.6	27
42: CS(=O)(=O)N1CCC(C(=O)Nc2ccc3c(c2)OCO3)CC1
  -3%	1.2%	1	-2%	7%	-0.2	-2
43: CCOC(=O)C1=C(C)NC(=O)NC1/C=C\c1ccccc1 (centres undefined)
  9%	0.3%	14	8%	-6%[15.4 µM]	4.7	0
44: Cc1ccc(C)c(NC(=O)c2ccc3c(=O)n4c(nc3c2)CCC4)c1
  .	-3.8%	-5	-2%	-13%	.	23
45: CCC1Nc2ncnc(N3CCN(c4ccccn4)CC3)c2N(Cc2ccc(Cl)cc2)C1=O (centres undefined)
  .	-21%	20	-6%	5%	.	3
46: COc1ccc(N2CCN(C(CNC(=O)C(=O)NCCc3c[nH]c4ccccc34)c3ccco3)CC2)cc1 (centres undefined)
  7%	0.2%	8	7%	-11%[15.4 µM]	-1.1	-12
47: CCOc1ccccc1NC(=O)CSc1nnc(-c2ccco2)n1Cc1ccco1
  -11%	-3.7%	5	-22%	-36%[inhibitor]	3.8	42
48: O=C(CCCSc1nc2ccccc2s1)Nc1nccs1
  -24%	-2.4%	5	9%	-20%	4.9	-3
49: Cc1cccc(NC(=S)NNC(=O)CCn2nc(C)c([N+](=O)[O-])c2C)c1
  -3%	-2.4%	8	1%	-50%[inhibitor]	1.0	2
50: CCn1cc([N+](=O)[O-])c(C(=O)N2N=C(c3ccc(O)c(OC)c3)CC2c2ccccc2O)n1 (centres undefined)
  8%	?	-8	-17%	7%	3.1	-8
51: Cc1cnc(C(=O)OC(C)C(=O)Nc2ccc(Cl)cn2)cn1 (centres undefined)
  .	.	3	8%	-4%[15.4 µM]	.	-5
52: Cc1cccc(NC(=O)CN(CC2CCCO2)C(=O)c2ccc(S(C)(=O)=O)cc2)c1C (centres undefined)
  .	25µM*	-4	18%	4%	.	13
53: COc1ccc(C(=O)c2ncc(C(F)(F)F)cc2Cl)cc1
  18%	.	3	-25%	0%[15.4 µM]	0.9	1
54: CCCCn1c(N)c(NCc2ccccc2OC)c(=O)[nH]c1=O
  -2%	.	3	5%	2%[15.4 µM]	-9.8	4

Screens: PubChem, National Center for Advancing Translational Sciences (NCATS)
